Screening data: PubChem BioAssay, Broad Institute
Vaccinia inh: Vaccinia orthopox stage-specific inhibition | AID 1053133 | hit rate 0.01% among 89,000 | activity change (mCherry), % (no concentration beside the values) | Vaccinia-infected cells, mCherry/Venus stage reporter fluorescence; hits give low values; some inactives read as strong as hits;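 active = mCherry past -33% and 40 or more points under the early reporter, replicates agreeing; inconclusive = past -33% without that gap or agreement; tested in A549 cells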;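 also: scaled between vehicle wells and reference inhibitor wells; 23 nL library stock went into each well; one replicate is shown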
Vaccinia inh Venus: also measured in Vaccinia inh; calls as there; activity change (Venus), %; measured here: Venus reporter, other viral stage;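 negative = less Venus signal; first of two replicates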
Numbers without * were called inactive; ? = inconclusive; · = no result given. An excerpt. The share of hits here may be higher or lower than overall.

cpd	smiles	Vaccinia inh	Vaccinia inh Venus
1	C[C@H]1CN([C@@H](C)CO)C(=O)Cc2cc(NC(=O)C3CCCCC3)ccc2O[C@H]1CN(C)C	17	4
2	CCS(=O)(=O)N1CCC2(CC1)CN(C(=O)c1ccc(F)cc1)[C@@H](CO)c1c2c2ccc(OC)cc2n1C	-15	-10
3	Cc1ccc(S(=O)(=O)Nc2ccc3c(c2)C(=O)N([C@@H](C)CO)C[C@H](C)[C@@H](CN(C)C(=O)Nc2ccccc2)OCCCC[C@H](C)O3)cc1	?	·
4	CO[C@H]1CC[C@@H]2CCOc3ccc(C#N)cc3C(=O)N(C)C[C@H](c3ccccc3)CC(=O)N(C)C[C@H]1O2	7	4
5	COc1ccc(S(=O)(=O)N(C)C[C@@H]2OCc3ccccc3-c3ccccc3C(=O)N([C@H](C)CO)C[C@@H]2C)cc1	-18	-20
6	CNC[C@@H]1Oc2cc(C#CCN(C)C)ccc2S(=O)(=O)N([C@@H](C)CO)C[C@@H]1C	-3	0
7	O=C([C@H]1[C@H](CO)[C@H]2Cn3c(ccc(-c4ccc(F)cc4)c3=O)[C@H]2N1Cc1cocn1)N1CCOCC1	13	4
8	C[C@@H]1CCCCO[C@@H](CN(C)C(=O)Nc2cccc3ccccc23)[C@H](C)CN([C@H](C)CO)C(=O)c2cc(NS(=O)(=O)c3ccccc3)ccc2O1	12	5
9	C[C@@H]1CN([C@H](C)CO)C(=O)Cc2cc(NC(=O)C3CCCCC3)ccc2O[C@@H]1CN(C)Cc1ccc2c(c1)OCO2	3	-6
10	C[C@@H]1CCCCO[C@@H](CN(C)S(C)(=O)=O)[C@H](C)CN([C@@H](C)CO)C(=O)c2cc(NC(=O)C3CCCCC3)ccc2O1	-11	0
11	COCC(=O)Nc1ccc2c(c1)OC[C@H](C)N(C(=O)Cc1cccnc1)C[C@@H](C)[C@H](OC)CN(C)C2=O	4	6
12	C[C@@H]1CN([C@H](C)CO)C(=O)c2cc(NC(=O)Nc3ccc4c(c3)OCO4)ccc2O[C@@H](C)CCCCO[C@H]1CN(C)Cc1ccc(C(=O)O)cc1	19	16
13	COc1ccc(OC(=O)N(C)C[C@H]2OCc3cnnn3CCCC(=O)N([C@@H](C)CO)C[C@@H]2C)cc1	15	18
14	COc1ccc2c3c([nH]c2c1)[C@H](CO)N(CC1CC1)CC31CCN(S(=O)(=O)c2cccc(F)c2)CC1	-5	-13
15	N#C[C@H]1[C@@H](c2ccc(C#CCC3CCCC3)cc2)[C@@H](CO)N1C(=O)c1ccccn1	8	13
16	C[C@@H]1CCCCO[C@H](CN(C)S(=O)(=O)c2ccc(Cl)cc2)[C@H](C)CN([C@@H](C)CO)C(=O)c2cc(NS(=O)(=O)c3cccs3)ccc2O1	-16	-4
17	COc1ccc(NC(=O)Nc2ccc3c(c2)CC(=O)N([C@@H](C)CO)C[C@@H](C)[C@@H](CN(C)Cc2ccccc2)O3)cc1	?	·
18	C[C@H](CO)N1C[C@H](C)[C@H](CN(C)C(=O)C2CCOCC2)Oc2ncc(/C=C/c3ccccc3)cc2C1=O	10	2
19	O=C(C[C@@H]1C=C[C@H](NC(=O)c2ccccc2)[C@@H](CO)O1)NCCc1ccncc1	13	5
20	CN1CCN(C(=O)C[C@@H]2CC[C@H]3[C@@H](COC[C@@H](O)CN3Cc3ccc4c(c3)OCO4)O2)CC1	13	4
21	C[C@@H]1CN([C@@H](C)CO)C(=O)c2cc(NC(=O)Cc3ccccc3)ccc2O[C@@H]1CN(C)C(=O)Nc1ccccc1	-8	1
22	COCC(=O)Nc1ccc2c(c1)C(=O)N(C)C[C@H](OC)[C@@H](C)CN(CC1CC1)[C@@H](C)CO2	3	5
23	O=S(=O)(Cc1ccccc1)NCC[C@@H]1CC[C@@H](NS(=O)(=O)c2ccc(F)cc2)[C@@H](CO)O1	3	3
24	Cc1noc(C)c1S(=O)(=O)N(C)C[C@H]1OCCCC[C@H](C)Oc2ccc(NC(=O)Nc3ccc(C(F)(F)F)cc3)cc2C(=O)N([C@H](C)CO)C[C@H]1C	16	16
25	C[C@H]1CN([C@@H](C)CO)C(=O)c2cc(C3=CCCC3)cnc2O[C@@H]1CN(C)C(=O)C1CCCCC1	0	-1
26	Cc1noc(C)c1S(=O)(=O)N(C)C[C@@H]1Oc2ccc(NS(=O)(=O)c3ccc(F)cc3)cc2CC(=O)N([C@H](C)CO)C[C@@H]1C	-6	-1
27	Cc1noc(C)c1NC(=O)N(C)C[C@@H]1OCCCC[C@H](C)Oc2ccc(NC(=O)c3ccncc3)cc2C(=O)N([C@H](C)CO)C[C@H]1C	29	10
28	COc1ccc2c3c(n(C)c2c1)[C@H](CO)N(C(=O)Nc1c(C)noc1C)CC31CCN(CC2CC2)CC1	20	10
29	Cc1noc(C)c1NC(=O)Nc1ccc2c(c1)C(=O)N([C@@H](C)CO)C[C@H](C)[C@@H](CN(C)Cc1ccc3c(c1)OCO3)O2	1	-1
30	C[C@@H]1CN([C@H](C)CO)C(=O)c2cc(NC(=O)Cc3ccccc3)ccc2O[C@@H]1CN(C)Cc1ccc2c(c1)OCO2	-18	-11

Down the list, as entered above.
Vaccinia inh for nos. 23 to 28: 3, 16, 0, -6, 29, 20
Vaccinia inh Venus for nos. 23 to 28: 3, 16, -1, -1, 10, 10

Remaining list, next part
cpd	smiles	Vaccinia inh	Vaccinia inh Venus
31	Cc1noc(C)c1NC(=O)N(C)C[C@@H]1Oc2c(cccc2N(C)C)C(=O)N([C@@H](C)CO)C[C@H]1C	9	8
32	CCCC(=O)Nc1ccc2c(c1)OC[C@H](C)N(C(=O)c1ccncc1)C[C@@H](C)[C@@H](OC)CN(C)C2=O	22	4
33	CN(C)CC(=O)N[C@@H]1CC[C@@H](CC(=O)NCc2ccc(Cl)cc2)O[C@@H]1CO	7	9
34	C[C@H]1CN([C@@H](C)CO)C(=O)Cc2cc(NC(=O)c3ccncc3)ccc2O[C@@H]1CN(C)Cc1ccc(C(=O)Nc2ccccc2N)cc1	5	0
35	C[C@H](CO)N1C[C@H](C)[C@H](CN(C)Cc2ccc(C(F)(F)F)cc2)OCCCC[C@H](C)Oc2ccc(NC(=O)NC3CCCCC3)cc2C1=O	?	·
36	CO[C@@H]1CN(C)C(=O)c2cc(NC(=O)c3ccccc3F)ccc2OC[C@H](C)NC[C@H]1C	2	10
37	Cc1ccccc1-c1ccc2c(c1)O[C@@H](CN(C)CC1CC1)[C@@H](C)CN([C@@H](C)CO)S2(=O)=O	-30	-28
38	O=C(C[C@@H]1CC[C@@H](NS(=O)(=O)c2ccccc2)[C@H](CO)O1)NCc1ccncn1	-3	0
39	O=C(c1cccnc1)N1CC2(C1)[C@@H](c1ccccc1)[C@@H](CO)N2Cc1ccncc1	0	2
40	C[C@@H]1CCCCO[C@H](CN(C)Cc2ccc(Cl)c(Cl)c2)[C@@H](C)CN([C@@H](C)CO)C(=O)c2cc(NC(=O)Nc3ccc(F)cc3)ccc2O1	-27	-26
41	CCO[C@H]1OC(C(=O)O)=C[C@@H](c2ccc3c(c2)OCO3)[C@@H]1CCCO	9	4
42	C[C@@H]1CN([C@@H](C)CO)S(=O)(=O)c2ccc(-c3ccccc3F)cc2O[C@@H]1CN(C)Cc1ccncc1	?	·
43	C[C@H]1CN([C@@H](C)CO)C(=O)CCCn2cc(nn2)CO[C@@H]1CN(C)C(=O)Nc1ccc(C(F)(F)F)cc1	17	16
44	CCNC(=O)[C@H]1[C@H](CO)[C@H]2Cn3c(ccc(-c4cccc(OC)c4)c3=O)[C@H]2N1C(=O)NC(C)C	3	3
45	Cn1cnc(S(=O)(=O)N[C@@H]2C=C[C@H](CC(=O)Nc3ccc(-c4ccccc4)cc3)O[C@H]2CO)c1	-3	8
46	CO[C@H](CN(C)S(=O)(=O)c1cn(C)cn1)[C@H](C)CN(C(=O)Nc1ccc(C(F)(F)F)cc1)[C@H](C)CO	12	5
47	CCC(=O)Nc1ccc2c(c1)OC[C@@H](C)N(CC1CCOCC1)C[C@@H](C)[C@H](OC)CN(C)C2=O	-3	-13
48	C[C@@H]1CN([C@@H](C)CO)C(=O)c2cccc(NC(=O)c3ccncc3)c2O[C@@H]1CN(C)C(=O)Nc1ccc(C(F)(F)F)cc1	9	7
49	CN1CCN(C(=O)C[C@H]2C[C@@H]3c4cc(NC(=O)C5CCC5)ccc4O[C@@H]3[C@H](CO)O2)CC1	-3	0
50	O=C(c1ccccn1)N1C[C@@H]2[C@H](c3ccccc31)[C@H](CO)N2CC1CCCC1	9	11
51	CCC(=O)N[C@@H]1C=C[C@H](CC(=O)NCc2ccccc2F)O[C@H]1CO	-5	-3
52	CCCNC(=O)N1[C@H](CO)[C@@H]2c3ccccc3N(C(=O)C3CC3)C[C@@H]21	9	21
53	C[C@H]1CCCCO[C@H](CN(C)C(=O)Cc2ccccc2)[C@@H](C)CN([C@@H](C)CO)C(=O)c2cc(NC(=O)Cc3ccccc3)ccc2O1	?	·
54	C[C@@H]1CN([C@H](C)CO)C(=O)c2cc(C#CCN(C)C)cnc2O[C@H]1CN(C)C(=O)Nc1cccc(F)c1	12	7
55	CC(C)NC(=O)N[C@@H]1CC[C@H](CCNS(=O)(=O)c2ccc(F)cc2)O[C@H]1CO	0	-2
56	COc1ccc(-c2cccc(-c3nc(C(=O)NCC(F)(F)F)cc4c3[C@@H](CCO)N([S@](=O)C(C)(C)C)C4)c2)cc1	-4	4
57	CO[C@H]1CN(C)C(=O)c2ccc(NC(=O)Nc3cc(F)ccc3F)cc2OC[C@@H](C)N(C(=O)c2cnccn2)C[C@@H]1C	4	4
58	COc1cccc(S(=O)(=O)Nc2ccc3c(c2)[C@H]2C[C@H](CC(=O)N4CCCCC4)O[C@@H](CO)[C@H]2O3)c1	0	4
59	COc1ccc(-c2ccc3n(c2=O)C[C@H]2[C@H](CO)[C@@H](C(=O)N4CCOCC4)N[C@@H]32)cc1	5	4
60	C[C@@H]1CN([C@@H](C)CO)C(=O)Cc2cc(NC(=O)CCCCCC(=O)Nc3ccccc3N)ccc2O[C@@H]1CN(C)C(=O)Nc1ccc2c(c1)OCO2	8	5

Filtered by structure, the entries above with a COOH group
cpd	smiles	Vaccinia inh	Vaccinia inh Venus
12	C[C@@H]1CN([C@H](C)CO)C(=O)c2cc(NC(=O)Nc3ccc4c(c3)OCO4)ccc2O[C@@H](C)CCCCO[C@H]1CN(C)Cc1ccc(C(=O)O)cc1	19	16
41	CCO[C@H]1OC(C(=O)O)=C[C@@H](c2ccc3c(c2)OCO3)[C@@H]1CCCO	9	4

Remaining list, next part
cpd	smiles	Vaccinia inh	Vaccinia inh Venus
61	O=C(c1ccccn1)N1C[C@@H]2[C@H](c3ccccc31)[C@H](CO)N2C(=O)Nc1ccccc1	6	6
62	Cc1noc(C)c1S(=O)(=O)N(C)C[C@H]1Oc2c(NC(=O)C3CCCCC3)cccc2C(=O)N([C@@H](C)CO)C[C@H]1C	-2	-1
63	O=C(c1ccc2c(c1)OCO2)N1CC(=O)N2[C@H](C1)[C@@H](c1ccc(C#Cc3ccccc3)cc1)[C@@H]2CO	?	·
64	C[C@@H]1CN([C@@H](C)CO)C(=O)Cc2cc(NC(=O)Cc3ccccc3)ccc2O[C@@H]1CN(C)S(C)(=O)=O	12	13
65	CN1C(=O)c2cc(NC(=O)c3ccc(F)cc3)ccc2OC[C@@H]2O[C@H](CC(=O)NCC3CCCCC3)CC[C@H]21	3	1
66	CN(C)CC(=O)N[C@H]1C[C@@H]2O[C@H](CO)CC[C@@H]2O[C@@H]1CCc1ccc(C#Cc2ccccc2)cc1	?	·
67	CCC(=O)Nc1ccc2c(c1)OC[C@@H](C)N(C(C)=O)C[C@H](C)[C@H](OC)CN(C)C2=O	15	8
68	CO[C@H]1CN(C)C(=O)c2cc(NC(=O)c3cccc(F)c3)ccc2OC[C@@H](C)NC[C@H]1C	-6	3
69	C[C@@H]1CN([C@@H](C)CO)C(=O)Cc2cc(NS(=O)(=O)c3ccccc3)ccc2O[C@H]1CN(C)Cc1ccccc1	-13	0
70	CCC(=O)N1C[C@@H](C)[C@@H](OC)CN(C)C(=O)c2cc(NC(=O)NC(C)C)ccc2OC[C@H]1C	2	-5
71	CNC(=O)C[C@H]1CC[C@H]2[C@@H](COC[C@@H](O)CN2C(=O)Nc2ccc(Cl)c(Cl)c2)O1	-15	-4
72	Cc1noc(C)c1NC(=O)N(C)C[C@@H]1Oc2ccc(NC(=O)CCCCCC(=O)Nc3ccccc3N)cc2CC(=O)N([C@@H](C)CO)C[C@@H]1C	0	-2
73	CN(C)Cc1cn(CC[C@H]2CC[C@@H](NC(=O)Cc3cccnc3)[C@H](CO)O2)nn1	9	17
74	C[C@@H]1CN([C@H](C)CO)C(=O)Cc2cc(NC(=O)Cn3cnnn3)ccc2O[C@H]1CN(C)Cc1ccncc1	20	13
75	CNC[C@@H]1Oc2ccc(NS(=O)(=O)c3ccc(C)cc3)cc2C(=O)N([C@@H](C)CO)C[C@H]1C	10	8
76	CCCNC(=O)Nc1ccc2c(c1)OC[C@H](C)N(Cc1ccncc1)C[C@H](C)[C@H](OC)CN(C)C2=O	11	11
77	CO[C@H]1CN(C)C(=O)c2ccc(NC(=O)C3CCCCC3)cc2OC[C@H](C)N(Cc2cccnc2)C[C@@H]1C	-19	-13
78	CC(C)c1cn(CC[C@@H]2CC[C@H](NC(=O)C3CCOCC3)[C@@H](CO)O2)nn1	35	26

Profiles as entered above:
CNC(=O)C[C@H]1CC[C@H]2[C@@H](COC[C@@H](O)CN2C(=O)Nc2ccc(Cl)c(Cl)c2)O1 is entered as Vaccinia inh = -15; Vaccinia inh Venus = -4
CO[C@H]1CN(C)C(=O)c2ccc(NC(=O)C3CCCCC3)cc2OC[C@H](C)N(Cc2cccnc2)C[C@@H]1C is entered as Vaccinia inh = -19; Vaccinia inh Venus = -13

Single values from the entries so far:
Result for #74 in Vaccinia inh Venus: 13
Result for #69 in Vaccinia inh Venus: 0
Result for #71 in Vaccinia inh Venus: -4
Result for #73 in Vaccinia inh: 9
